Sfp PPTase inh = inhibitors of Bacillus subtilis Sfp phosphopantetheinyl transferase. Potency, µM, inactives show max response, negative = inhibition, most hits filed as inhibitors. Q9F4F7. Biochemical Sfp PPTase activity, qHTS. 310,000 tested, 3.5% active; active = well fitted inhibition curve with a large enough effect; inconclusive = small, poorly fitted or top-dose-only effect, or another doubt; inactive = no such curve, though single readings can be large or run the other way;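 also: the enzyme is Sfp with the accession as filed and its product quenches rhodamine fluorescence; potency is read from the fitted curve at half-maximal effect; 0% = enzyme reaction without inhibitor and -100% = no enzyme wells; top concentration of the series not given in the record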
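After 15 min at room temperature with compound, 15 nM Sfp received 5 uM rhodamine-CoA plus 12.5 uM BHQ-2-ybbR (50 mM Hepes pH 7.6, 10 mM MgCl2). Rate came from the fluorescence difference over 30 min, ex 525/em 598 nm.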
CtBP-E1A blk = CtBP/E1A binding inhibition; AlphaScreen GST-E1A/His-CtBP binding, 1536-well; active compounds read low; control for the full effect not named in the record; activity change, % (no concentration beside the values); 340,000 tested, 0.49% active; AID 651724; in the data active means activity change below about -65%; inconclusive means about -30% to -65%; inactive means above about -30%; also: % is scaled to controls: 0 for no effect and ±100 for the full control effect
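Steps: dispense buffer (Tris pH 8.0, NaCl 300 mM, TCEP 1 mM, BSA, Tween 20); add 5X protein mix (GST-E1A, His-CtBP, 125 nM each); pin 23 nL compound; 2 h at 37 °C, dark; add 5X beads (50 ug/mL); 1 h; read.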
gsp antagonist = antagonists of gsp mutant (McCune-Albright syndrome); gsp-mutant cells, cAMP HTRF, 30 min; control for the full effect not named in the record; Potency, µM (titrated, usually from 76.9 µM), for inactives: at the top dose activity change, negative = inhibition, usual class: inhibitors; 340,000 tested, 0.4% active; AID 624288; active = falling curve of any shape with a large fitted effect; inconclusive = falling curve, mostly with a smaller effect; inactive = flat or rising curve; cell line not stated here;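 also: intracellular cAMP measured with PDE inhibitor Ro 20-1724 present during compound exposure; potency is read from the fitted curve at half-maximal effect; % is scaled to controls: 0 for no effect and ±100 for the full control effect; nearly all actives have a fitted effect of over 65% in size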
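Cells, 2000/well, grown 16–24 h in DMEM 10% FBS with 0.5 mg/ml G418, then compounds plus […] (300 uM addition stock), 30 min at 37C. cAMP read by HTRF (cAMP-d2 and anti-cAMP antibody-K in lysis buffer) after 30 min RT.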
gsp ag = agonists of gsp mutant (McCune-Albright syndrome). gsp mutant cells, cAMP HTRF, 30 min; control for the full effect not named in the record. Potency, µM (highest dose often 76.9 µM), for the others: at the highest dose activation (cAMP increase), most hits filed as activators. 340,000 tested, 0.13% active. AID 624287; active = well fitted activation curve with a large enough effect; inconclusive = small, poorly fitted or top-dose-only effect, or another doubt; inactive = no such curve, though single readings can be large or run the other way; cell line not stated here;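 also: phosphodiesterase inhibitor Ro 20-1724 added with compounds to block cAMP breakdown; potency is read from the fitted curve at half-maximal effect; nearly all actives have a fitted effect of over 60% in size; about a fifth of the inactives were tested at one dose only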
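Cells stably selected in G418 were plated at 2000/well, grown 16-24 hr, then given compounds in DMSO with the PDE inhibitor […] (300 uM solution added) for 30 min at 37C; cAMP was read by HTRF.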
Menin-MLL FL inh = inhibitors of human menin-MLL interaction, wild-type MLL peptide. Fluorescence polarization, fluorescein-MLL peptide displacement from menin. FP activity change, % at 61.4 µM. 290,000 tested, under 10 active. AID 1766; inconclusive = falling polarisation curve, or a change in total fluorescence; inactive = total fluorescence flat and polarisation flat or rising; no compound was filed as active; the % refers to the polarisation; negative = inhibition;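 also: % of control where 0% means no effect; inhibitors lower the polarisation; unlabelled MLL peptide was the positive control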
ClpP mod = qHTS Assay for Activators of ClpP; ATP-dependent Clp protease proteolytic subunit (Bacillus subtilis (strain 168)), P80244; purified B. subtilis ClpP, FRET peptide cleavage, 20 min; Potency, µM (highest dose often 57.5 µM), for the others: at the top dose activity change, negative = active; 340,000 tested, 1.9% active; AID 651965, 2013; active = well fitted falling curve with a large enough effect; inconclusive = small, poorly fitted or top-dose-only effect; inactive = no such curve, though single readings can be large or run the other way; also: potency is read from the fitted curve at half-maximal effect; the source files actives as falling curves though it sought activators and does not explain the sign; nearly all actives have a fitted effect of over 65% in size; many hits overshoot -100%
Target sequence (P80244 whole entry, looked up): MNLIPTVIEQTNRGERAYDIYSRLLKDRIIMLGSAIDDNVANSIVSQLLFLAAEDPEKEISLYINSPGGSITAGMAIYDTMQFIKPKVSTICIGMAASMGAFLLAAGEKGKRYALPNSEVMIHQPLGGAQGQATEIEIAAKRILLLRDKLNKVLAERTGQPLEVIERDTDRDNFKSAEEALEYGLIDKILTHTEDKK
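FRET quenching reversal measured ClpP activation: 10 microg/mL B. subtilis ClpP at pH 8 with the FRET-FV decapeptide, read at 430 nm after 320 nm excitation. The 20-min minus 0-min signal was scaled between DMSO/no-enzyme wells and ADEP (5.8 microM final).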
TRPV1 potentiator = potentiators of human vanilloid receptor 1 (TRPV1). Q8NER1. TRPV1-expressing cells, Fluo-8 calcium influx, capsaicin EC20 potentiation; host cell line not named in the record; control for the full effect not named in the record. potentiation, % at 8.33 µM. 320,000 tested, 0.02% active; active means potentiation above 80%; inconclusive means 30% to 80%; inactive means below 30%; also: 0% is about no effect
Target sequence (Q8NER1 whole entry, looked up): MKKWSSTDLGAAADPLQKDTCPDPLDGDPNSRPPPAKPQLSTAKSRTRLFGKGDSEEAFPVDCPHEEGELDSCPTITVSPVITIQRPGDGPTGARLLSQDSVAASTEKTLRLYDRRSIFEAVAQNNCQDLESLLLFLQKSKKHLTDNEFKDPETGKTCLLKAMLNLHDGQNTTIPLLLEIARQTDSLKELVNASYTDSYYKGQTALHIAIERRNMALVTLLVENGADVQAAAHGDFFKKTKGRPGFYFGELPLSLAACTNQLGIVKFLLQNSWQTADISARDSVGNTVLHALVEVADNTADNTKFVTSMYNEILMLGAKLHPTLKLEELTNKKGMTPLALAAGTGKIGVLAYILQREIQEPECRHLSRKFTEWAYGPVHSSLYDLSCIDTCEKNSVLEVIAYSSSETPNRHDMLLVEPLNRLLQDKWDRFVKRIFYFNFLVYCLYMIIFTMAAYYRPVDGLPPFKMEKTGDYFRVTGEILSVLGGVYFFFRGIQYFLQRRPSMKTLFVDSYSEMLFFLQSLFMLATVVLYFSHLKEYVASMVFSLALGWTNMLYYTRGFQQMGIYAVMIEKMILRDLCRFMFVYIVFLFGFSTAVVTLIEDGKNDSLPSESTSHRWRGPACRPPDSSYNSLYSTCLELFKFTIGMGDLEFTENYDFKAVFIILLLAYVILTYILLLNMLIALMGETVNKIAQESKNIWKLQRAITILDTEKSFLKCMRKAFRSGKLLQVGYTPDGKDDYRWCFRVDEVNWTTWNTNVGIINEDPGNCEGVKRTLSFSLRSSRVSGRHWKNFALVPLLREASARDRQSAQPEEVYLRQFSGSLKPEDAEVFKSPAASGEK
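Fluo-8 calcium influx in TRPV1-expressing cells, kinetic read (ex 480/em 520 nm). Compound added and read 3 min for agonist activity, followed by capsaicin at EC20 final and 2 min further read for enhancement.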
* hit, by the source's call; ? = inconclusive; · = no result given; [ ] = remark or other dose.

SMILES	Sfp PPTase inh	CtBP-E1A blk	gsp antagonist	gsp ag	Menin-MLL FL inh	ClpP mod	TRPV1 potentiator
O=C(Nc1cccc(F)c1)c1cccnc1N1CCOCC1	21.8%	8.7	0.8%	-51.8%[inhibitor]	0.7	-2.5%	-4.3
O=C(O)c1ccccc1-c1ccccc1C(=O)Nc1ccccc1Br	26.7%	2.5	-1.1%	2.8%	·	0.1%	-5.1
COc1cc(NC(=O)c2cccs2)cc(OC)c1	0.8%	-6.4	2.3%	32.1%	4.3	-25.7%	-16.4
Cn1cccc1C(=O)c1cccc([N+](=O)[O-])c1	11.1%	-25.4	1.7%	2.3%	0.9	-2.2%	-0.8
COCCCNC(=O)c1ccc(CS(=O)(=O)c2cccc(C(F)(F)F)c2)o1	8.5%	10.8	-0.1%	?	0.3	0.5%	15.3
OCCn1ccc(-c2ccccc2OCc2ccc(F)cc2)n1	14.3%	-3.3	-7.9%	2.8%	3.7	·	26.1
Cc1sc2ncnc(SCC(=O)c3ccc(Cl)s3)c2c1C	-3.6%	·	·	·	8.6	·	27.7
O=C(NCC1CCCO1)/C(=C\c1cccc([N+](=O)[O-])c1)NC(=O)c1ccccc1 (stereo not drawn)	21.6%	-15.5	·	-1.0%[15.4 µM]	-1.6	·	-4.3
CN(CC(=O)N1CCc2[nH]c3ccc(F)cc3c2C1)CC1OCCO1	10.3%	-1.0	1.9%	-12.9%	-12.1	-8.3%	1.6
COc1cc(/C=C2\S/C(=N/S(=O)(=O)Cc3ccccc3)NC2=O)c([N+](=O)[O-])cc1OC	-0.9%	·	3.9%	9.7%	4.8	0.6%	7.8
Cc1ccc(C2(C(F)(F)F)NC(=O)N3CCN=C3S2)cc1 (stereo not drawn)	-15.8%	0.3	3.4%	21.2%	-1.1	1.1%	21.2
CCCCCCC(=O)Nc1c(O)c2ccccc2[nH]c1=O	50.1µM*	7.8	5.3%	7.9%	-0.3	?	3.7
COc1ccc(NC(=O)NNS(=O)(=O)c2ccc(Br)cc2)cc1	10.0%	-4.8	5.5%	10.5%[15.4 µM]	-2.2	-1.8%	-1.2
CC[C@]12c3[nH]c4ccc(Cl)cc4c3CCN1C(=O)[C@@H](CC(=O)NCCCn1ccnc1)C[C@@H]2C(=O)N1CCN(C(=O)c2ccco2)CC1	·	-1.1	2.5%	·	·	0.3%	·
CCOc1ccc2[nH]c3c(N4CCN(c5ccccn5)CC4)ncnc3c2c1	-2.9%	?	-8.4%	24.5%	-1.4	28.2µM*	-17.7
COc1ccc(C)cc1S(=O)(=O)Nc1ccccc1	-4.4%	-1.8	3.6%	-10.1%	0.0	-3.3%	-2.8
Cc1onc(-c2c(Cl)cccc2Cl)c1C(=O)N1CCCc2ccccc21	8.8%	9.0	-14.4%	15.7%	-5.1	0.9%	-5.5
CN(c1ccc(OCC(=O)OCC(=O)NCc2ccco2)cc1)S(=O)(=O)c1ccc2ccccc2c1	20.0%	-1.8	-13.5%	10.0%[15.4 µM]	2.7	-4.0%	-4.6
Oc1ccccc1CC=NC1CCCCC1	·	3.9	5.0%	-5.4%	·	1.0%	·
N#C/C(=N\Nc1ccc(S(=O)(=O)N2CCc3ccccc32)cc1)C(N)=S	?	-28.1	?	-1.2%[15.4 µM]	4.0	·	-0.6
CCCS(=O)(=O)N1CCCC(C(=O)NCC2CCCO2)C1 (stereo not drawn)	16.7%	1.6	-2.2%	-13.0%	3.8	-1.2%	-4.9
CCc1cc(C(=O)NCCN(C)C)cs1	17.5%	6.7	7.0%	23.0%	1.4	0.2%	-1.9
COc1ccc(-c2cc(C(=O)Nc3ccc(OC)c(OC)c3)no2)cc1	7.2%	0.5	13.3%	1.1%[15.4 µM]	-4.3	1.6%	1.5
CCOC(=O)c1ccc(NC(=O)CSc2nnc(CNc3ccc(OC)cc3)n2C)cc1	-14.0%	4.8	1.2%	-27.6%	-1.9	-2.9%	5.2
CCNC(=O)C(=O)NCC(c1cccs1)S(=O)(=O)c1ccc(C)cc1 (stereo not drawn)	3.2%	-13.5	7.0%	19.1%	-3.3	-2.8%	4.3
Cc1ccc(C(=O)OCC(=O)c2cc(C)n(CC3CCCO3)c2C)cc1 (stereo not drawn)	-21.0%	-0.9	-13.5%	-0.5%[15.4 µM]	8.1	·	-13.6
CCCOc1ccc(N2CC(C(=O)Nc3ccccc3OC)CC2=O)cc1 (stereo not drawn)	-0.1%	-1.1	-8.5%	?	1.3	0.5%	-22.7
Cc1cc(NC(=O)C(C)Oc2ccc(Cl)cc2Cl)n(-c2ccccc2)n1 (stereo not drawn)	-2.1%	0.3	-6.2%	1.1%	0.0	-3.5%	-14.3
O=C(N(c1ccccc1)c1ccccc1)n1ccnc1	8.7%	2.0	5.9%	0.6%	-1.3	-0.7%	5.0
CCOC(=O)C1=C(c2ccccc2)N=C2SCC(=O)N2C1c1ccc(OCC)c(OCC)c1 (stereo not drawn)	3.9%	-1.0	-5.4%	-19.7%	-0.1	-0.5%	-2.1
CC1=C(C(=O)N2CCOCC2)C(c2cc(C)cs2)NC(=O)N1 (stereo not drawn)	1.4%	3.4	3.0%	8.4%	-7.5	-3.2%	27.1
Cc1cc(Br)cc(C)c1NC(=O)c1ccccc1[N+](=O)[O-]	0.4%	-0.7	-5.0%	-28.7%	10.9	-1.8%	4.5
C/C(=N/Nc1ccccc1C(=O)O)c1cccs1	16.8%	-1.0	-6.0%	-1.4%[15.4 µM]	5.8	0.5%	3.6
O=C(C1CC1)N1CCN(c2nc3ccccc3s2)CC1	8.4%	10.6	0.6%	-30.6%[inhibitor]	3.2	0.9%	-23.7
Cc1ccc(C(=O)OCC(=O)NC(=O)Cc2ccccc2)c(O)c1	15.9%	4.8	3.5%	7.6%	-5.3	42.9%	-8.9
COc1cccc(N2CCN(C(=O)CNC(=O)c3sc4ccccc4c3Cl)CC2)c1	23.4%	-18.5	-11.2%	-2.5%[15.4 µM]	9.0	-5.8%	-2.9
COCCCNS(=O)(=O)c1ccc2c3c(cccc13)C(=O)S2	-3.4%	5.8	-1.5%	-4.7%	1.5	-5.8%	11.1
O=c1oc2ccccc2c(N2CCCCC2)c1[N+](=O)[O-]	6.0%	4.9	13.3%	-2.0%	-0.7	-0.8%	9.2
CCOC(=O)C1(CC2CCCCO2)CCN(Cc2ccc(OC)cc2F)CC1 (stereo not drawn)	10.4%	0.2	-3.3%	7.9%[15.4 µM]	-1.7	·	-11.8
CCCC(=O)Nc1cc(C(=O)O)ccc1S(=O)(=O)c1ccc(C)cc1	-5.7%	0.4	7.3%	?	0.5	-35.1%	0.0
Cn1c(CC(O)c2nc3ccccc3n2C)nc2ccccc21 (stereo not drawn)	·	-3.9	·	15.2%	·	?	·
CC(C)OC(=O)[C@H]1[C@H](c2ccc(Cl)cc2)[C@@](C#N)(C(N)=O)[C@@H]2C=CC(C(N)=O)=CN21	-4.7%	-6.5	-7.6%	28.2%	-0.5	-2.9%	16.8
COc1ccccc1/C=N/NC(=O)C(=O)Nc1ccccc1OC(F)(F)C(F)F	-5.6%	7.8	?	3.3%	4.3	0.6%	29.8
CC(C)CCNC(=O)c1cc(S(=O)(=O)N2CCCCC2)ccc1N1CCOCC1	0.4%	-4.5	1.8%	18.9%	1.5	-1.2%	-18.1
O=C(N/N=C/c1ccc[nH]1)c1cc(-c2cccs2)nc2ccccc12	10.2%	-16.7	-6.5%	12.1%[15.4 µM]	-0.9	0.8%	14.0
O=C(OCc1c(F)cccc1Cl)c1cccc(S(=O)(=O)N2CCOCC2)c1	·	8.0	-16.1%	-0.8%	·	-1.1%	-15.3
COc1ccc(C2Nc3ccccc3C(=O)N2O)cc1OC (stereo not drawn)	-4.7%	-22.3	5.6%	-31.5%[inhibitor]	2.5	-2.8%	11.4
C#CCN(C[C@H]1[C@H](OC(=O)NCc2ccccc2F)[C@H](OC(=O)NCc2ccccc2F)C[C@@H](C(=O)OC)[C@H]1C(=O)OC)S(=O)(=O)c1ccc(C)cc1	·	11.5	·	-22.0%	·	1.3%	·
CC1=NC(C)(C)Cc2cc(C)c(C)cc21	2.3%	20.8	9.8%	-11.1%[15.4 µM]	-1.3	·	-16.9
CC1=C(C(=O)Nc2ccc(C)cc2C)C(c2ccc(C)o2)NC(=O)N1 (stereo not drawn)	4.0%	3.9	-9.2%	-8.2%	-0.9	-3.4%	2.9
Cc1ccc(C2NC(C(=O)O)CS2)cc1 (stereo not drawn)	70.8µM*	·	·	·	-0.9	·	-11.7
CC(C)CN(CCNC(=O)CC1Oc2ccccc2NC1=O)CC(C)C (stereo not drawn)	15.1%	7.2	3.4%	1.9%	-1.0	2.0%	-40.5
Cc1ccc(C2=C(O)c3ccccc3C(=O)C2=O)cc1	-1.6%	0.3	?	?	1.1	-1.1%	15.5
CC1O[C@@H](OC2C(O)C(O)C(CO)O[C@H]2OC2C[C@]3(C)C(CC(O)C4[C@@H]([C@]5(C)CC[C@@H](C(C)(C)O)O5)CC[C@]43C)[C@@]3(C)CCC(O)C(C)(C)C23)C(O)C(O)C1O (stereo partly drawn)	·	2.0	8.9%	·	·	0.6%	·
Cc1[nH]n(-c2ccccc2)c(=O)c1C(c1ccc(O)c([N+](=O)[O-])c1)c1c(C)[nH]n(-c2ccccc2)c1=O	·	-3.4	11.2µM*	8.3%	·	-0.6%	·

Ordered by value in Menin-MLL FL inh (rising): 3 of the compounds above.
molecule | Menin-MLL FL inh
CC1=NC(C)(C)Cc2cc(C)c(C)cc21 | -1.3
CC(C)CN(CCNC(=O)CC1Oc2ccccc2NC1=O)CC(C)C (stereo not drawn) | -1.0
CC1=C(C(=O)Nc2ccc(C)cc2C)C(c2ccc(C)o2)NC(=O)N1 (stereo not drawn) | -0.9

Screening data: PubChem, National Center for Advancing Translational Sciences (NCATS)
